Screening data as filed in PubChem BioAssay.
CSC inhib = cancer stem cell viability inhibitors, primary screen, luminescence; cancer stem cell-like cells viability; AID 2717, 2010; 300,000 tested, 1.1% active; inhibition, % at 7.5 µM;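 active = mean at 75% or more and at least half the replicates too; inconclusive = mean and replicates disagree; tested in HMLE shEcad cells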;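 note: 0% = median of negative and 100% = median of positive control wells; the first replicate is given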
HIV Env fusion = inhibitors of HIV-1 Env-driven cell-cell fusion, primary screen, HeLa-JRFL effector, CEM21 target cells, luciferase. inhibition, % at 12.3 µM. 360,000 tested, 1.1% active;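 active = mean replicate inhibition score of at least 50 and every replicate individually at or above 50; inconclusive = only one of the two criteria met; inactive = mean below 50 and not all replicates reaching 50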;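 note: 0% = plate neutral controls and 100% = maraviroc near 300 nM; one replicate is shown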
MT1-MMP act inh = blockers of MT1-MMP proenzyme processing, primary screen, HT1080 RFP-PRO-GFP cells, GFP/RFP fluorescence | GFP/RFP ratio fluorescence, overnight; percent of plate control window, DMSO zero | GFP/RFP ratio change, % at 20 µM | 360,000 tested, 0.061% active | AID 651647, 2012;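 active = GFP/RFP ratio change of at least 30% with cell ATP level not reduced by more than half and red fluorescence within 50% of control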; note: strong numbers were not always called active
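Assay system: HT1080 cells carrying an RFP-PRO-GFP reporter | Dosing: Single dose of 20 µM compound, 1% DMSO final | Incubation: Cells overnight before dosing, compound overnight, 37 °C, 5% CO2 | Evaluation: GFP/RFP fluorescence ratio | Control set: DMSO and RFP-L50D-GFP cell wells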
PABP FP inh = PABP poly(A) RNA binding inhibitors, primary screen, biochemical, fluorescence polarization, uHTS; inhibition, % at 35 µM; 290,000 tested, 1% active;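 active = 50% or more with normal probe brightness, or confirmed in later tests; inconclusive = above 50% with abnormal brightness, or retests that disagree; inactive = below 50% or failed in later tests; about a fifth of its hits are not listed in these tables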;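 note: calls also rest on retests at 20 µM and on dose response follow-up; controls were probe without protein and protein plus probe with vehicle; some compounds called inactive have numbers as strong as hits; many hits fall short of the cut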
Target sequence (P11940 whole entry, looked up): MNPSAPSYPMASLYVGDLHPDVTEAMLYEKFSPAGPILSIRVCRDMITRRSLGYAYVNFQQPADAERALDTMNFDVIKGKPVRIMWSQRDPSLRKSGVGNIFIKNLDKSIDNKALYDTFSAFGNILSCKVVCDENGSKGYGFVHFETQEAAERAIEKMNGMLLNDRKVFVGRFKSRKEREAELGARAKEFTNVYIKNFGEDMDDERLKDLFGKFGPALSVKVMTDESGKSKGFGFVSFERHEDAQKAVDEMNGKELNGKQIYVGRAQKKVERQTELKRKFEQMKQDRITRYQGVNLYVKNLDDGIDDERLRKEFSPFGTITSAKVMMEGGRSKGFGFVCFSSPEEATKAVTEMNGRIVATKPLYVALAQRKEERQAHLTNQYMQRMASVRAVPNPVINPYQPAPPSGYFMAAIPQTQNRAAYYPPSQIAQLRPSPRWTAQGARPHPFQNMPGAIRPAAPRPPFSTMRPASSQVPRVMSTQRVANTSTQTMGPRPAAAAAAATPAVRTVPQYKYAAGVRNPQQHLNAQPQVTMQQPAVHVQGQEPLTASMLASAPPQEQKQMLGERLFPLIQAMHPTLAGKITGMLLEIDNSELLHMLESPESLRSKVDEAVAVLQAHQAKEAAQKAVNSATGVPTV
UUG fidelity = modulators of yeast start codon fidelity, primary screen, whole organism, S. cerevisiae, single point, plate reader. S. cerevisiae UUG-firefly luciferase reporter, luminescence/redox ratio. activity score, % at 18.7 µM. 350,000 tested, 0.13% active;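 active = replicate mean at a twofold rise or more, about +100% in these data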;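 note: firefly luciferase made from a UUG start codon reports start codon fidelity; reporter light over untreated wells divided by growth signal over untreated wells; some hits fall short of that in this replicate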
Rce1 inhib = yeast Rce1p protease inhibitors, primary screen, biochemical, fluorescence, cell-free homogeneous. CAAX prenyl protease 2 (Saccharomyces cerevisiae (strain ATCC 204508 / S288c)), Q03530. yeast membranes, quenched prenylated peptide cleavage fluorescence. calls only. 290,000 tested, 0.27% active. AID 2563, 2010;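 active = fall in fluorescence gain of 50% or more versus controls, with final raw signal at or below 3038400; inconclusive = same 50% fall but final raw signal above 3038400; inactive = fall in fluorescence gain under 50%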;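 note: plate controls were neutral control wells for no effect and wells lacking membranes for full effect; tested at 10 µM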
Target sequence (Q03530 whole entry, looked up): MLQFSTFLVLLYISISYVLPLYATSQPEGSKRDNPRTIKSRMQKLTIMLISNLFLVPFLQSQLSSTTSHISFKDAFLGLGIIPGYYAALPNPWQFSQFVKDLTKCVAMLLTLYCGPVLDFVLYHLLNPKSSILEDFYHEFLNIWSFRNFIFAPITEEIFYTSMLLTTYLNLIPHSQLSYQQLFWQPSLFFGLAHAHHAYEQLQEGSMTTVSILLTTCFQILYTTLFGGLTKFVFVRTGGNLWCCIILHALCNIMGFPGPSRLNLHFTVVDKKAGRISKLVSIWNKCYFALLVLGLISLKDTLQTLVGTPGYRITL
eIF4H inh = human eIF4H binding inhibitors, primary screen, translation initiation inhibitor project, biochemical, uHTS, fluorescence polarization | inhibition, % at 35 µM | AID 2012, 2009 | 290,000 tested, 0.94% active | eIF4H fluorescence polarization binding assay | Eukaryotic translation initiation factor 4H (Homo sapiens), Q15056;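 active = 50% or more with normal probe brightness, or confirmed in later tests; inconclusive = above 50% with abnormal brightness, or retests that disagree; inactive = below 50% or failed in later tests; about a fifth of its hits are not listed in these tables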;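 note: calls also rest on retests at 20 µM and on dose response follow-up; 0% = protein and probe with vehicle and 100% = probe without protein; strong numbers were not always called active; many hits fall short of the cut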
MT1-MMP act inh RFP = recorded beside MT1-MMP act inh, whose call it bears; RFP signal change, %; measured here: RFP expression control read;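 0 = vehicle wells; hits needed this value within 50% of zero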
Starred values were filed as active, the others as inactive; i = inactive; ? = inconclusive; . = no result given. A portion of the library; count on the stated rates, not on these rows.

Sample of the layout:
SMILES | CSC inhib | HIV Env fusion | MT1-MMP act inh | MT1-MMP act inh RFP | PABP FP inh | UUG fidelity | Rce1 inhib | eIF4H inh
CCN1CCN(c2oc(COc3ccc(-c4ccccc4)cc3)nc2C#N)CC1 | 38 | . | 2 | -4 | -6 | 7 | i | 3
COc1ccc(C(=O)N/N=C(\c2ccccc2)c2ccccn2)cc1 | 50 | 43 | -4 | -5 | 5 | -18 | i | 21

The list itself, from the start:
SMILES | CSC inhib | HIV Env fusion | MT1-MMP act inh | MT1-MMP act inh RFP | PABP FP inh | UUG fidelity | Rce1 inhib | eIF4H inh
CCN1CCN(c2oc(COc3ccc(-c4ccccc4)cc3)nc2C#N)CC1 | 38 | . | 2 | -4 | -6 | 7 | i | 3
COc1ccc(C(=O)N/N=C(\c2ccccc2)c2ccccn2)cc1 | 50 | 43 | -4 | -5 | 5 | -18 | i | 21
Cc1cc2nc(CN(C)Cc3c(C(=O)N(C)C)nc4ccc(Cl)cn34)[nH]c2cc1C | 6 | 0 | 1 | 3 | 5 | . | i | 3
OC(CNc1nc(C(F)(F)F)nc2ccccc12)c1ccccc1 (stereo unspecified) | -8 | 58* | -3 | -7 | 1 | -13 | i | -12
CC(=O)C1=C(C)N(c2ccccc2)C(=O)C1(NS(=O)(=O)c1ccc(N)cc1)C(F)(F)F (stereo unspecified) | 4 | 9 | 0 | 1 | -14 | -14 | i | -5
CC(C)CC[C@@H](O)[C@](C)(O)C1CC[C@@]2(O)C3=CC(=O)[C@@H]4C[C@@H](O)[C@@H](O)C[C@]4(C)C3CC[C@]12C (stereo partly specified) | . | -11 | 0 | 1 | . | 7 | . | .
CC(=O)Nc1ccc(O)cc1[N+](=O)[O-] | -4 | 15 | -7 | -4 | 8 | 0 | i | 1
O=C(NC1CC1)C1=C[C@@H](c2csc3ccccc23)C[C@@H](OCc2ccc(CO)cc2)O1 | -8 | -18 | 3 | -3 | -11 | -15 | i | -2
O=C(Nc1cccc(S(=O)(=O)N2CCCC2)c1)c1ccc2ccccc2n1 | -11 | -3 | -2 | -9 | 2 | -6 | i | -10
CC(C)N(c1ccccc1)c1ccc(NC(=S)NCCN(C)C)cc1 | 0 | -12 | -2 | -5 | 5 | . | i | -5
CCC1(c2ccccc2)NC(=O)N(CC(=O)N2CCc3ccccc32)C1=O (stereo unspecified) | -22 | 1 | 17 | -7 | . | -17 | . | .
CCN1CCN(c2ccc(S(=O)(=O)N3CCCCC3)cc2NC(=O)Cc2c(F)cccc2Cl)CC1 | -3 | -2 | 1 | 2 | 6 | -7 | . | 8
O=C(CN(C(=O)CCC(=O)Nc1nccs1)c1ccc(F)cc1)NCC1CCCO1 (stereo unspecified) | -15 | . | -3 | 3 | -2 | 1 | i | 2
COc1cc(NC2c3ccccc3C(=O)N2Cc2ccccc2)cc(OC)c1OC (stereo unspecified) | 17 | 73* | 5 | 4 | -5 | 7 | i | -4
Cc1ccccc1-n1nc2c(c1NC(=O)C(C)C)CS(=O)(=O)C2 | 2 | -8 | -7 | -2 | -6 | -15 | i | -1
CCOc1ccc(S(=O)(=O)N2CCC(c3ccccc3)CC2)cc1C(=O)O | -3 | 3 | 6 | 4 | 4 | 2 | i | 5
COc1cc(C(=O)NC(=S)Nc2nc(-c3ccc(F)cc3)cs2)cc(OC)c1OC | -1 | -6 | -1 | -2 | -6 | -9 | i | -14
COCN(C#N)c1nc(OC)nc(OC)n1 | -20 | . | -2 | 4 | 17 | -5 | i | -8
CCCCC(CC)C(=O)Nc1ccc(Cl)cn1 (stereo unspecified) | 0 | 8 | -4 | -3 | 1 | -22 | i | 7
COc1ccc(C2C(C#N)=C(N)N(N(C)C)C3=C2C(=O)CCC3)cc1 (stereo unspecified) | -12 | 4 | -2 | 1 | -2 | -8 | i | -3
CC(C)(C)C(=O)COC(=O)c1cc(-c2ccncc2)nc2ccccc12 | -1 | 8 | -3 | -10 | -4 | -13 | i | 1
COc1ccc([N+](=O)[O-])cc1N(CC(=O)N1CCCCC1)S(C)(=O)=O | -10 | -13 | -1 | -1 | -2 | -3 | i | 9
CN(CCN1CCOCC1)Cc1nc(-c2cccs2)no1 | -11 | -6 | -1 | -1 | 4 | . | i | -7
CCOC(=O)c1ccc(S(=O)(=O)N2CCC(C(=O)NCC3CCCCC3)CC2)cc1 | -5 | -12 | 0 | -5 | . | -18 | . | .
CCCc1cc(=O)oc2cc(OCC(=O)Nc3ccc4c(c3)OCCO4)ccc12 | 8 | -111 | -17 | 1 | -4 | -11 | i | -12
O=C(c1cccnc1)c1cccnc1 | -3 | -2 | 1 | 0 | -2 | . | i | -3
O=C(c1ccco1)N1N=C(c2ccc(Cl)cc2)CC1c1ccco1 (stereo unspecified) | 0 | -6 | 0 | -8 | 6 | -14 | i | -12
O=C(Nc1ccccn1)c1cccc(S(=O)(=O)N2CCOCC2)c1 | 1 | . | 0 | 0 | -7 | 0 | i | 7
Cc1ccccc1OCC(=O)Nc1ccc(S(=O)(=O)Nc2onc(C)c2C)cc1 | . | 7 | 6 | 7 | 3 | -13 | i | 2
CC(=O)c1ccc(S(=O)(=O)NCc2cccnc2)cc1 | -10 | 5 | 3 | 3 | 0 | 1 | i | 8
Cc1ccnc(NC(=O)Cn2c(=O)oc3cc(S(=O)(=O)N4CCCC4)ccc32)c1 | 5 | -1 | -3 | 4 | -4 | -5 | i | -5
CCOC(=O)c1oc2c(O)c(O)ccc2c(=O)c1-c1nncn1-c1ccccc1 | -16 | . | 2 | 4 | 5 | -9 | i | 8
CC(C)NC(=O)c1c(O)c2cccc3c2n(c1=O)CCC3 | 1 | -2 | 0 | 4 | 30 | -15 | i | -7
CN(CC(=O)Nc1ccccc1Br)C(=O)C1CCN(C(=O)c2ccc(Cl)cc2)CC1 | -13 | -5 | 0 | 2 | -2 | -3 | i | 5
Cc1ccc(NC(=O)Cn2cccc2)cc1Cl | -5 | . | -3 | -4 | 0 | -12 | i | -4
CC(C)c1ccccc1NCC(=O)N1CCN(Cc2ccccc2)CC1 | -1 | 7 | 1 | -5 | 0 | 7 | i | 6
COc1ccccc1CNC(=O)C1(C)Oc2cccnc2NC1=O (stereo unspecified) | 10 | 2 | -2 | 0 | -13 | . | i | 2
COc1ccc(S(=O)(=O)N(C)c2ccc(C(=O)NCc3ccco3)cc2)cc1 | -1 | 0 | -5 | -3 | -7 | 1 | i | -10
CCOC(=O)CN1C(=O)N[C@@H](c2cccc(F)c2)C(C(=O)OC)=C1C | . | ? | 4 | -3 | . | -12 | i | .
Cc1cccc(NC(=O)c2ccc(N3C(=O)C4C5C=CC(C6CC56)C4C3=O)cc2)c1 (stereo unspecified) | 0 | 12 | 3 | -19 | 2 | -17 | i | 4
Cc1cc(N2CCN(C(=O)c3ccco3)CC2)n2ncc(-c3ccccc3)c2n1 | -12 | . | -4 | -8 | -7 | -20 | i | -10
Cc1ccnc(OC(C(=O)O)C(OCCc2ccccc2)(c2ccccc2)c2ccccc2)n1 (stereo unspecified) | 10 | 21 | -4 | 1 | 7 | -14 | i | -4
Fc1ccc(/C=N/N2CCCCC2)c(F)c1 | -7 | -14 | 1 | 4 | -16 | -9 | i | -1
O=C(CCn1c(=S)oc2ccccc21)NC1CCCCC1 | 1 | -5 | 2 | 2 | -3 | . | i | 3
O=C(/C=C/c1ccc(O)c(O)c1)OCCc1ccccc1 | 71 | 6 | -5 | -17 | . | -19 | i | .
S=C(NC1CCCC1)N1CCN(c2cccc(Cl)c2)CC1 | 16 | -1 | 6 | -2 | -7 | . | i | -5
Cc1sc2nc(CSCC(=O)N(CCC#N)c3ccccc3)[nH]c(=O)c2c1C | -8 | 24 | -12 | -2 | -1 | -8 | i | 41
CN1/C(=C/C=N/NC(=O)c2ccc([N+](=O)[O-])cc2)C(C)(C)c2ccccc21 | . | 20 | -15 | 4 | 7 | . | i | 4
O=C(CCCOc1ccccc1)Nc1cccnc1 | 7 | 1 | 5 | 4 | -3 | -8 | i | -4
N#Cc1cccc(NC(=O)Nc2cccs2)c1 | 3 | . | -5 | -2 | 8 | -17 | i | 13
CC1(C(=O)Nc2ccc3nc[nH]c3c2)CCN1C(=O)C1(c2ccccc2)CC1 (stereo unspecified) | . | 2 | 3 | 5 | . | -17 | . | .
COc1ccc(CNC(=O)C(=O)NCCC2CCCCN2S(=O)(=O)c2ccccc2)cc1 (stereo unspecified) | 9 | -17 | -1 | -7 | . | 12 | i | .
Cc1ccc(C)c(NS(=O)(=O)c2cc(C(N)=O)ccc2C)c1 | -15 | . | 5 | -1 | 10 | -13 | i | 4
COc1cc2c(cc1OC)/C(=C/C#N)NC(C)(C)C2 | -3 | . | 9 | 8 | 2 | 11 | i | 0
CCc1nnc(NC(=O)CSc2nnc(C)n2CC2CCCO2)s1 (stereo unspecified) | -3 | -18 | -5 | -3 | -5 | . | i | -7
Cc1cc(=O)oc2c(C)c(OCC(=O)NCCCn3ccnc3)ccc12 | -11 | 8 | -2 | 1 | 4 | -19 | i | -10
CC1(N(O)/C=C2\C=CC=CC2=O)CCCCC1=O (stereo unspecified) | -12 | 14 | 0 | 3 | -3 | . | i | 2
O=C(CCC(=O)Nc1nnc(C2CCCCC2)s1)NCc1ccc(F)cc1 | 8 | -4 | 5 | 7 | -8 | -26 | i | -18
Cc1ccccc1N1CCN(Cc2cccc(C(=O)O)c2)CC1 | -3 | -2 | 0 | 0 | -3 | -10 | i | -17
Cc1ccc(Oc2ccc(Cl)cc2NC(=O)c2cnccn2)cc1 | -9 | . | 3 | -4 | 0 | -10 | i | -10
(further entries)
SMILES | CSC inhib | HIV Env fusion | MT1-MMP act inh | MT1-MMP act inh RFP | PABP FP inh | UUG fidelity | Rce1 inhib | eIF4H inh
COc1cccc(C(=O)c2c[nH]c(C(=O)NCc3ccco3)c2)c1 | 5 | . | 0 | 2 | 5 | -8 | i | -9
CCN(CC)C(=O)CN(c1cccc(C(F)(F)F)c1)S(C)(=O)=O | -11 | -21 | 2 | 2 | 6 | -6 | i | -6
O=C(Nc1ccccc1)c1cc(S(=O)(=O)NCc2ccncc2)ccc1Cl | 35 | 5 | 3 | -27 | -1 | -1 | i | -5
O=S(=O)(NCC1CCCO1)c1cc(Cl)ccc1Cl (stereo unspecified) | . | . | -1 | -2 | -1 | -16 | i | -12
FC(F)(F)COc1nc(N2CCOCC2)nc(N(c2ccccc2)c2ccccc2)n1 | . | 76* | -19 | -19 | 3 | -16 | i | -10
COc1cc(-c2nnc(SCC(=O)Nc3cc(C)on3)n2C)cc(OC)c1O | -15 | . | 9 | 2 | 0 | -10 | i | 7
O=C(C1=NN[C@@H]2C(=O)N(c3cccc(F)c3)C(=O)[C@H]12)C(c1ccccc1)c1ccccc1 | -2 | 10 | 2 | 0 | 4 | . | i | -6
CCOC(=O)C(C)Sc1ncc(-c2ccccc2)cn1 (stereo unspecified) | -11 | 6 | 8 | 7 | -7 | . | i | -7
Cc1c(C)n(-c2ccccc2)c2ncnc(NCCCN(C)C)c12 | 3 | -6 | 3 | 3 | 3 | -7 | i | -5
O=C(Nc1cc(Cl)ccc1-n1cncn1)c1ccc([N+](=O)[O-])s1 | 29 | . | -89 | -4 | 0 | -7 | i | -2
